STK33 inh: blocks human STK33 kinase activity; Q9BYT3; purified STK33, MBP phosphorylation, ADP-Glo luminescence; inhibition, % at 10 µM; hit rate 0.073% among 320,000; AID 2661;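 active means inhibition at or above 25%, using the most active replicate where run in duplicate; inactive means inhibition below 25%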
Target sequence (Q9BYT3 whole entry, looked up): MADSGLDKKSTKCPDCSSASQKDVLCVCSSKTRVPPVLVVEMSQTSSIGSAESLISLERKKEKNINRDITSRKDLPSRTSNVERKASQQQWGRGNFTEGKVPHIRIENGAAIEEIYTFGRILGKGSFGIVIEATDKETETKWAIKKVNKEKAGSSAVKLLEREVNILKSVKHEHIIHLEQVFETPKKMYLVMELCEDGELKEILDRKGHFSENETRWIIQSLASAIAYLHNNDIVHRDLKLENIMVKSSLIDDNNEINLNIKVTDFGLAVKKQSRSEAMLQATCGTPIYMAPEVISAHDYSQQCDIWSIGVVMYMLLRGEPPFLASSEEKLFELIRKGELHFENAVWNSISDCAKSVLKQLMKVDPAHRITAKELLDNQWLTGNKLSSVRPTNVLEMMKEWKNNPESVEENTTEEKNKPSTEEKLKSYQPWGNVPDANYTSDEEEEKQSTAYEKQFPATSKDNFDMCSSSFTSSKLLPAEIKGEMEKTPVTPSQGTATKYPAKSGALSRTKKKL
Kir21 block: blocks the mouse Kir2.1 inward-rectifier potassium channel; P35561; HEK293-Kir2.1, FluxOR thallium flux fluorescence; stronger effect = lower value; B-score at 10 µM; hit rate 0.85% among 310,000;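 active means fluorescence ratio B-score at or below minus 3 SD of library scores, with starting-brightness B-score within 2 SD, cut at about -4.2 in these data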;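 further: channel flux triggered by added potassium and thallium sulfate stimulus; B-score of peak minus minimum fluorescence over baseline after thallium stimulus; more negative B-score means stronger Kir2.1 block with less thallium influx; some compounds called inactive have numbers as strong as hits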
Target sequence (P35561 whole entry, looked up): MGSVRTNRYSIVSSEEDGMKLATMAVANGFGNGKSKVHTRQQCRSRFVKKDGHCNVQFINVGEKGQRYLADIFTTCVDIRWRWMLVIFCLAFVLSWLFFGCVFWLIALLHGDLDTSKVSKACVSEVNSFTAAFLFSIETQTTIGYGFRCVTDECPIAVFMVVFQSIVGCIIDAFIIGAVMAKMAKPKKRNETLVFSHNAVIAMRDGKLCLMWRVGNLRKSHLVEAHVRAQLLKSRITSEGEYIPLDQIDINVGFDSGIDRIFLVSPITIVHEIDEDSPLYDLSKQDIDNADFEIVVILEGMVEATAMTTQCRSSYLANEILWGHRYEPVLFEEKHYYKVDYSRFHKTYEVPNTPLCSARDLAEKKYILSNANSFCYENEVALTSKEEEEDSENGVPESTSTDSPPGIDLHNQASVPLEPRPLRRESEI
Active calls of the source: *; nt = not tested or not shown. This is a subset, and most or all hits are left out here.

Preview (two entries):
SMILES	STK33 inh	Kir21 block
COc1ccc(CC(=O)Nc2ccc(-c3noc(-c4ccc(Cl)cc4)n3)cc2)cc1	-0.8	1.03
NC(N)=NN=C1c2ccccc2-c2ccccc21	0.1	-0.66

All compounds of this part (from the top)
SMILES	STK33 inh	Kir21 block
COc1ccc(CC(=O)Nc2ccc(-c3noc(-c4ccc(Cl)cc4)n3)cc2)cc1	-0.8	1.03
NC(N)=NN=C1c2ccccc2-c2ccccc21	0.1	-0.66
COc1cccc(OC)c1OCCCNC1CCCC1	0.3	-0.41
O=C(NCCc1c[nH]c2ccccc12)/C(=C\c1cccnc1)NC(=O)c1ccco1	-1.0	-0.01
O=C(COc1ccccc1Cl)N1CCN(c2ccc(F)cc2)CC1	0.4	0.05
Cc1ccc(Cl)cc1NC(=O)c1ccccc1OCC(=O)N1CCOCC1	4.3	0.99
CSc1ccc(CN2CCCC(CO)(Cc3ccccc3)C2)cc1 (configuration not stated)	7.1	-4.54*
CC(C)(C)c1ccc2c(c1)N(CC(=O)O)C(=O)CO2	-1.2	-0.04
O=C(CCCCC(=O)NC1CCCC1)NC1CCCC1	-0.9	2.65
COc1ccc(N2CCN(CCCNC(=O)C3CCN(S(=O)(=O)N4CCOCC4)CC3)CC2)cc1	-1.9	-0.34
Cc1cccc(S(=O)(=O)Nc2cccc(-c3cn4ccsc4n3)c2)c1	-1.4	0.14
O=c1c2ccccc2[nH]c(=S)n1CCCN1CCOCC1	-1.0	0.23
O=C(COC(=O)CSc1ccc2ccccc2c1)Nc1ccccc1OC(F)F	0.0	0.91
CCC(=O)Nc1ccc(NC(=O)c2cccc(OC)c2)nc1	1.4	1.15
O=C(COc1ccc([N+](=O)[O-])cc1)NNC(=O)c1cccnc1	-6.5	0.44
Cc1ccc(Cn2c(C3CCCN3c3nc(-c4cc(Cl)c(N)c(Cl)c4)cs3)nc3cc(Cl)c(Cl)cc32)cc1 (configuration not stated)	-2.2	1.72
COc1ccc(Cl)cc1NC(=S)Nc1ccccc1F	-0.7	-1.21
COc1ccc(CCNC(=O)CSc2nc3[nH]ncc3c(=O)n2-c2ccccc2OC)cc1OC	1.7	-0.9
O=C(N/N=C/c1ccc(OCc2ccccc2)cc1)c1ccc(O)cc1	0.2	-0.09
CN(C)/C=C1\N=C(c2ccc3c(c2)OCO3)OC1=O	1.2	-0.34
CCC(=O)NNc1cccc(Cl)n1	-1.6	1.13
CC(C)n1c(NCc2cccs2)nc2ccccc21	0.1	1.13
COc1ccc(N2CCN(c3nc4ccccn4c(=O)c3C=O)CC2)cc1	-2.3	1.4
COCCNC(=O)C1CCC(CNS(=O)(=O)c2c(C)cc(C)cc2C)CC1 (configuration not stated)	-1.2	-1.45
CCOC(=O)c1c(CC(C)C)csc1NC(=O)CCl	-2.3	0.94
O=C(COc1ccc(OCc2ccccc2)cc1)NC1CCOC1=O (configuration not stated)	-0.6	-1.58
COC(=O)c1ccc(COc2ccc(C(C)(C)C)cc2)o1	-0.9	-1.26
O=Cc1cn(CC(O)Cn2cc(C=O)c3ccccc32)c2ccccc12	-0.5	1.49
Cc1ccc(NC(=O)CN2C(=O)N/C(=C/c3ccc4c(c3)OCCO4)C2=O)cc1	0.0	-0.32
C(=N\Nc1nc2ccccc2[nH]1)/c1ccncc1	14.3	0.22
O=C(NNC1CC(=O)N(c2ccccc2)C1=O)c1ccccc1Cl (configuration not stated)	-2.7	-0.05
O=C(c1ccccc1Cl)N1N=C(c2cccs2)CC1c1cccc(O)c1 (configuration not stated)	0.3	-0.69
CC(C)C(NC(=O)CC12CC3CC(CC(C3)C1)C2)C(=O)O (configuration not stated)	0.0	0.5
C/C(=N/NC(=O)c1nnn(-c2nonc2N)c1COc1ccccc1)c1ccccc1Cl	-2.7	-0.53
Cc1nn(C(=O)CCC(=O)NCc2ccccc2Cl)c2ccccc12	nt	-0.35
COc1ccc(/C=N/NC(=O)c2nc(-c3ccccc3)n(-c3ccccc3)n2)cc1	-0.3	2.33
CCOc1ccc(NC(=O)C2CCCN(S(=O)(=O)c3cccc4nsnc34)C2)cc1 (configuration not stated)	-2.0	0.52
O=C(NCc1nnc2c3ccccc3c(-c3ccccc3)nn12)c1ccccc1Cl	-1.8	0.33
CCCOc1ccc(NC(N)=O)cc1OCCC	-0.5	0
CCOCCn1ccc2c(OCC(=O)NCCc3ccc(OC)c(OC)c3)cccc2c1=O	-0.5	1.13
COC(=O)c1ccsc1NC(=O)c1ccco1	-0.5	-1.01
Nc1ccc(N2CCCCC2)c(Cl)c1	2.5	-1.1
CCOC(=O)c1ccc(N2CN=C3SCC(=O)N3C2)cc1	-0.3	-0.37
CCOc1ccc(Nc2nc3c(C)cccc3cc2C#N)cc1	-0.6	-0.11
Cc1cc(C(=O)NNC(=S)NC(C)c2ccccc2)cs1 (configuration not stated)	-0.6	-0.23
CCCCN(Cc1cccs1)S(=O)(=O)c1ccc(-c2ccc(=O)[nH]n2)s1	-0.8	-0.32
O=[N+]([O-])c1ccc(CSc2ccccn2)cc1	-2.5	-0.87
CNCCOc1ccccc1C(C)(C)C	-0.3	-0.48
O=C(NCc1cccc2[nH]ccc12)C1CCC(=O)N(CCc2ccc(Cl)cc2)C1 (configuration not stated)	-0.7	-0.16
O=C(CCc1nc(-c2ccccc2Cl)no1)NC1CCCC1	2.6	-0.23
O=C(Nc1ccc(Br)cc1F)c1ccc2c(c1)N(Cc1ccccc1)C(=O)CS2=O (configuration not stated)	-0.1	-1.24
CCOC(=O)N1CCN(C(=O)CS(=O)(=O)c2cn(Cc3cccc(F)c3)c3ccccc23)CC1	-1.6	1.08
O=C1CN2C(=Nc3ccc(Cl)cc3C2c2ccccc2)CN1 (configuration not stated)	1.6	-1.4
O=C(c1cccc(F)c1)N1CCc2ccccc21	-1.4	2.09
Cc1noc(NS(=O)(=O)c2ccc(NC(=O)CCC3CCCCC3)cc2)c1C	-1.3	-1.22
COc1ccccc1/C=C/C=NC1C(=O)N(c2ccccc2)[N+](C)=C1C (configuration not stated)	-1.2	-2.37
CCCCNC(=O)C1CCN(c2nc(C)cc(C)n2)CC1	-0.6	0.13
CCOc1ccc(C(C)=O)cc1COC(=O)c1cnc(Cl)c(Cl)c1	-1.4	0.48
Cc1cc(C)c(OCC(=O)Nc2ccc(S(=O)(=O)N3CCCC3)cc2)c(C)c1	-1.5	-0.18
COc1cccc(-c2ocnc2C(=O)Nc2ccc(N3CCOCC3)cc2N2CCOCC2)c1	0.8	-0.06

Next section.
SMILES	STK33 inh	Kir21 block
O=C(O)COCC(=O)N1CCN(c2cc(C(F)(F)F)nc3ccccc23)CC1	-1.5	-1.62
Cc1c(Cc2ccccc2)c(=O)oc2cc(OCC(=O)N3CCC(C(=O)O)CC3)ccc12	1.2	-1.96
O=C(CSc1ncn[nH]1)Nc1cccc2ccccc12	0.5	-0.34
O=C(O)C1C2C=CC(C2)C1C(=O)NCCC1=CCCCC1 (configuration not stated)	-1.4	-0.94
Cc1cccc(C(=O)Nc2nnc(SCC(=O)NC3CC3)s2)c1	0.7	0.18
Nc1nc(-c2ccc3c(c2)CCC(=O)N3)cs1	-2.0	-0.05
Cn1c(Oc2ccccc2)c(C=O)c2ccccc21	0.8	-0.05
CC(=O)c1ccc(NC(=S)Nc2cccc3ccccc23)cc1	-0.5	0.4
COC(=O)C1CN(C(=O)COc2cccc(C)c2C)c2ccccc2O1 (configuration not stated)	-1.0	-0.51
CCCS(=O)(=O)Nc1c(C(=O)O)[nH]c2ccc(OC)cc12	3.0	0.3
Cn1c(SCC(=O)Nc2ccccc2)nnc1C(F)(F)F	-0.6	0.97
Cc1cccc(OCCCC(=O)NCC(=O)Nc2cccc(C)c2C)c1	0.3	-0.02
CN(C(=O)c1ccccc1Cl)c1ccccc1C(=O)NCCc1ccccc1	-2.1	-0.53
C=CCNc1nc(N)c(C(=O)Nc2cc(C)on2)s1	0.7	0.57
CCC(=O)c1ccc(N2CCN(C(=O)c3ccccc3F)CC2)c(F)c1	-0.9	0.73

The closing 4 entries of the part before lead into the next.
SMILES	STK33 inh	Kir21 block
Cc1cccc(OCCCC(=O)NCC(=O)Nc2cccc(C)c2C)c1	0.3	-0.02
CN(C(=O)c1ccccc1Cl)c1ccccc1C(=O)NCCc1ccccc1	-2.1	-0.53
C=CCNc1nc(N)c(C(=O)Nc2cc(C)on2)s1	0.7	0.57
CCC(=O)c1ccc(N2CCN(C(=O)c3ccccc3F)CC2)c(F)c1	-0.9	0.73
CCOC(=O)CCc1nc2ccccc2[nH]1	-1.2	-0.29
CCCn1nnnc1NCc1ccc(OC)cc1	-1.9	0.08
COc1ccc(C(=O)/C=C2/C(=O)Nc3ccccc32)cc1	-0.4	-2.07
CCCc1nc2c(s1)CCc1onc(-c3ccc(Br)cc3)c1-2	-1.0	0.01
O=C1CCCC(=O)N1c1ccc(N2CCN(c3ccc([N+](=O)[O-])cc3)CC2)c([N+](=O)[O-])c1	5.4	0.54
CC(C)c1ccc(/C=N/n2nnnc2Nc2ccccc2)cc1	-1.8	0.03
CCC(C)(C)NC(=O)CN(Cc1ccc(OC)cc1)C(=O)CCC(=O)Nc1nccs1	1.1	-0.91
COc1cc(C)ccc1S(=O)(=O)n1nc(C)cc1C	-0.1	-0.46
O=C(NCc1nnc2c(C(F)(F)F)cc(Cl)cn12)C1CCCC1	-0.6	1.14
COc1cccc(NC(=O)C(c2ccccc2)N2CCNC(=O)C2)c1 (configuration not stated)	0.0	0.02
CCOC(=O)C1=NN(c2ccc(OC)cc2)C2C(=O)N(c3ccccc3OC)C(=O)C12 (configuration not stated)	-0.4	1.79
CCOc1ccc(-n2nc(C(=O)N3CCN(CC)CC3)c3ccccc3c2=O)cc1	-0.1	-1.58
O=[N+]([O-])c1ccc(CNC2CCCc3ccccc32)cc1 (configuration not stated)	-2.3	2.41
O=C(NNc1c2ccccc2nc2ccccc12)c1ccccc1Cl	-0.6	-0.98
COc1ccccc1N(CC(O)Cn1c2ccccc2c2ccccc21)S(=O)(=O)c1ccccc1 (configuration not stated)	-0.1	0.8
COc1ccc(-c2c(C#N)sc(C(N)=O)c2-c2ccc(OC)cc2)cc1	-0.6	-1.13
Cc1ccc(OCC(=O)Nc2ccc(NC(=O)c3ccco3)cc2)c(C)c1	2.2	0
Cc1cccc(OCC(=O)Nc2ccc3c(c2)nc2n3CCOC2)c1	1.1	-0.86
COC(=O)c1sc2nc(N)c(C#N)cc2c1N	0.3	-0.28
Cc1cc(C)cc(NC(=O)c2c(C)nc3ccccn23)c1	0.2	-0.09
CCN1CCCC1CNS(=O)(=O)c1ccc(Cl)c(C(F)(F)F)c1 (configuration not stated)	-0.4	0.15
COc1ccc(/C=c2\sc3nc(-c4ccccc4)c(-c4ccccc4)n3c2=O)cc1OC	0.2	0.4
COc1ccc(CC(=O)OCC(=O)Nc2ncc(Cl)cc2Cl)cc1OC	-1.2	0
Cc1ccccc1-n1c(SC2CCOC2=O)nnc1-c1ccncc1 (configuration not stated)	-0.2	0.7
CC(C)CCNC(=O)C(C)N(Cc1ccc(F)cc1)C(=O)c1ccc(CN2CCOCC2)o1 (configuration not stated)	-1.5	0.71
O=C(Nc1nnc(-c2ccncc2)s1)C1CCCO1 (configuration not stated)	-1.5	0.28
O=C(Nc1cccn(Cc2c(Cl)cccc2Cl)c1=O)C1CC1	-1.8	-0.34
CCc1nc(C)ccc1OCC(=O)NCCCN(C)C	-1.0	-0.52
CCn1c(C)c(CS(=O)(=O)c2ccccc2)[nH]c1=O	-0.7	0.05
Cc1cccc(N2CCN(c3nc(C)cc(C)c3C#N)CC2C)c1 (configuration not stated)	-0.9	-0.01
Cc1c(NC(=O)CCSCCc2ccccn2)cccc1[N+](=O)[O-]	0.1	0.75
CC1(C)CN(c2ccc(-c3ccnc4ncnn34)cc2)C1=O	0.0	-0.02
COc1cc(NC(=O)NCCN2CCN(c3ccc(Cl)cc3)CC2)ccc1C	-0.2	0.41
CSc1ncccc1C(=O)NNC(=O)c1ccc(NS(=O)(=O)c2cccs2)cc1	-0.9	-2.5
CCCCN(Cc1ccccc1)C(=O)C1CCC(=O)N(CCc2ccccn2)C1 (configuration not stated)	-0.5	2.29
O=C(c1ccc(CS(=O)Cc2ccc(Cl)cc2)o1)N1CCN(c2ccc(F)cc2)CC1 (configuration not stated)	-1.9	-0.01
COC(=O)Nc1ccc(S(=O)(=O)N2CCC(C(=O)N3CCC(C)CC3)CC2)cc1	-0.6	-1.04
Cc1ccc(NC(=O)CSCc2ccco2)cc1	1.2	0.14
O=C(OCc1ccccc1)C1=NNC2C(=O)N(c3ccccc3)C(=O)C12 (configuration not stated)	-1.7	0.25
O=C(/C=C/c1ccc(F)cc1)c1ccc(N2CCOCC2)cc1	0.9	-2.15
COC(=O)C(C#N)C(c1cccnc1)c1c(C)[nH][nH]c1=O (configuration not stated)	-0.1	-0.72
COC(=O)c1c(NC(=O)CN(c2ccc(C)c(C)c2)S(C)(=O)=O)sc2c1CCCC2	nt	-1.06
COC(=O)c1ccc2c(c1)NC(=O)c1ccccc1S2	-1.5	-1.06
CC(C)Nc1ncnc2c1cnn2-c1ccc(Cl)cc1	-1.9	2.23
COC(=O)c1cccc(Nc2ccc([N+](=O)[O-])cn2)c1	-3.1	1.28

Pulled by compound from the entries so far (4):
SMILES	STK33 inh	Kir21 block
O=C(/C=C/c1ccc(F)cc1)c1ccc(N2CCOCC2)cc1	0.9	-2.15
COc1cc(NC(=O)NCCN2CCN(c3ccc(Cl)cc3)CC2)ccc1C	-0.2	0.41
CC1(C)CN(c2ccc(-c3ccnc4ncnn34)cc2)C1=O	0.0	-0.02
CSc1ncccc1C(=O)NNC(=O)c1ccc(NS(=O)(=O)c2cccs2)cc1	-0.9	-2.5

Screens deposited in PubChem by several laboratories.
